A1 inh: caspase 3/7 activation in MEF A1-2A-BIM cells, primary screen, A1 inhibitor project, cell-based, luminescence, HTS. Caspase-Glo 3/7 luminescence, 3 h; percent of clofoctol response, vehicle zero. caspase activation, % (test concentration not listed). 330,000 tested, 0.066% active. AID 2462, 2010;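 active = over half of replicate activation scores above 10%, or exactly half above 10 with the replicate mean above 10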;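 note: wells of about 30 µL received 50 nL stock; many hits fall short of the cut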
UCH37 inh: inhibitors of human UCH37 deubiquitinase, primary screen, biochemical, Ub-AMC cleavage, fluorescence; 330,000 tested, 0.33% active; AID 588478, 2011; Ubiquitin carboxyl-terminal hydrolase isozyme L5 (Homo sapiens), Q9Y5K5; purified proteasome/UCH37; inhibition, % (no concentration beside the values);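 active = mean of two replicates above 20%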;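 note: 0% = compound-free wells with enzyme and 100% = wells lacking proteasome; stock transfer was 100 nL into about 20 µL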
Target sequence (Q9Y5K5 whole entry, looked up): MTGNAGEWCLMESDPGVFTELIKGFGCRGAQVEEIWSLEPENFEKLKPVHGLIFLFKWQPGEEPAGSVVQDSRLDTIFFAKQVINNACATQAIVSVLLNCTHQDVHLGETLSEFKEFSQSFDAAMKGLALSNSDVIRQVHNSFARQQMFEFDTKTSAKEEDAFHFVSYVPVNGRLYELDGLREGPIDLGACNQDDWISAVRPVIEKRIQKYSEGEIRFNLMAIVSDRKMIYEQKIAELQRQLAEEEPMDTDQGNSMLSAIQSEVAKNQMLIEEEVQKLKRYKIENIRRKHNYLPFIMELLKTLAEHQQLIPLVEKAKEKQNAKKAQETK
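assay system = human UCH37 enzyme supplied as purified proteasome complex | amount = proteasome at 0.15 nM in the dispensed enzyme solution | schedule = 30 min compound-proteasome preincubation then 25 min substrate reaction, room temperature | measured by = fluorescence, ex 355 nm, em 460 nm | benchmarks = no-proteasome wells (full inhibition) and compound-free wells (no inhibition)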
rRNA inh HTS: reduced GFP signal of wild-type E. coli, primary screen, bacterial rRNA inhibitor project, GFP/RFP fluorescence, OD600, single point; 350,000 tested, 1.6% active; E. coli WT GFP vs humanized-ribosome RFP mutants, 24 h; hits give low values; DMSO median 0, no signal -100; GFP signal change (wild-type ribosome), % (no concentration beside the values);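 active = significant combined selectivity score with lowered wild-type GFP, culture density cut under 30%, mutant RFP and density less affected; inactive = any of these conditions unmet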; note: one replicate is shown; some compounds called inactive have numbers as strong as hits
T cruzi inh: inhibitors of intracellular T. cruzi growth, primary screen, luminescence, NIH3T3 host cells; T. cruzi beta-gal in NIH3T3, 90 h; inhibition, % (no concentration beside the values); AID 1885, 2009; 300,000 tested, 1.4% active;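 active = mean inhibition across valid replicates above about 55%, limit read from the data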;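 note: signal also drops with host cell toxicity which is not excluded here; 0% = plate median of DMSO wells and 100% = zero luminescence signal; higher percent means less beta-gal luminescence so fewer parasites; stock transfer was 50 nL into about 50 µL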
Beta apoptosis: inhibitors of cytokine-induced beta cell apoptosis, primary screen, luminescence; INS-1E cytokine-induced death, ATP luminescence, 48 h; percent of positive-control rescue, neutral wells zero; protection from apoptosis, % (no concentration beside the values); 300,000 tested, 0.8% active; AID 435005, 2010;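 active = all replicates at 75% or more, or half of them and the mean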;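 note: 0% = cytokine-treated negative control wells and 100% = positive control rescue; higher means more ATP so stronger rescue from cytokine killing; wells of about 40 µL received 100 nL stock; the first replicate is given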
E coli growth: E. coli growth inhibition, primary screen, OD600. OD600 absorbance (concentration not given with the values). AID 1053175, 2014. 330,000 tested, 0.21% active. Escherichia coli growth, 23 h; hits give low values;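 active = OD600 absorbance below the run mean of sample wells minus 3.6 SD, in any replicate, cut at about 0.56 in these data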;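 note: stock transfer was 300 nL into about 60 µL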
FGF22 binding: binders of human FGF22 protein, primary screen, FGF22 synaptogenesis inhibitor project, biophysical, thermal shift, single point; Fibroblast growth factor 22 (Homo sapiens), Q9HCT0; recombinant FGF22 thermal shift, SYPRO orange fluorescence; percent of sucrose octasulfate shift, DMSO zero; calls only at 9.99 µM; 340,000 tested, 1.5% active; AID 651658, 2012;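 active = melting point raised past a set limit in the mean and every replicate; three in four hits are not shown here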
Target sequence (Q9HCT0 whole entry, looked up): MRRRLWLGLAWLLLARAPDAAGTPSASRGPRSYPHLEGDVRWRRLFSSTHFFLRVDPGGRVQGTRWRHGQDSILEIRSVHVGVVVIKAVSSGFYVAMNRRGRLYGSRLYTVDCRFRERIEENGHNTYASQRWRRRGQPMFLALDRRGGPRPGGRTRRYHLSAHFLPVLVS
AF4-AF9 inh: inhibitors of AF4 peptide binding to AF9, primary screen, biochemical, AlphaScreen, biotin-AF4 peptide, FLAG-AF9, single point | inhibition, % at 10 µM | AID 651704, 2012 | Protein AF-9 (Homo sapiens), P42568 | 350,000 tested, 0.47% active;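 active = every replicate reaching a set inhibition limit, whatever the replicate mean, cut at about 25% in these data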;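 note: 0% = plate neutral control median and 100% = total signal loss; the record names both 10 and 1 µM as test concentration; the first replicate is given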
Target sequence (P42568 whole entry, looked up): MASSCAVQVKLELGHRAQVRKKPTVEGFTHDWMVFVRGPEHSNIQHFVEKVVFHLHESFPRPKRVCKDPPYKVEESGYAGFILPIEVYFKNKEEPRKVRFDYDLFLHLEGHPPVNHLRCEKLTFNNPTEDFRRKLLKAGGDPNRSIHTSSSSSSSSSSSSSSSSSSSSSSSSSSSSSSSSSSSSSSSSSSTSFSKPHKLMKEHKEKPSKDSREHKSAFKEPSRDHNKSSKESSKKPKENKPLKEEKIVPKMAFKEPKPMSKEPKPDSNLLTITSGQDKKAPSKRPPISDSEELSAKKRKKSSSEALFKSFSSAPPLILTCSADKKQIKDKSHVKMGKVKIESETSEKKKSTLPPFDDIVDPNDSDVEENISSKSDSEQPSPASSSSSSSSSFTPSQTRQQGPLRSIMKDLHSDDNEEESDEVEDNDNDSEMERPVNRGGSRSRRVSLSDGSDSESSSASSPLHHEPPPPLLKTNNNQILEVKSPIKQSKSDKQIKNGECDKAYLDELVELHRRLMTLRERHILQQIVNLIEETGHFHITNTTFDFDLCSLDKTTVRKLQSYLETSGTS
rRNA inh HTS OD600: also measured in rRNA inh HTS; calls as there; OD600 change, %; measured here: OD600 growth;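 optical density of the mix in the first replicate; 0 = DMSO median and -100 = no signal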
rRNA inh HTS RFP: second read-out of rRNA inh HTS, no call of its own (marks repeat the call); RFP signal change, %; measured here: RFP humanized mutant strains;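 first replicate; 0 = DMSO median and -100 = no signal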
Starred values were filed as active, the others as inactive; i = inactive; / = no result given; & = joins results of further samples. Not all compounds are listed; the hit share may differ from the screen's.

SMILES | A1 inh | UCH37 inh | rRNA inh HTS | rRNA inh HTS OD600 | rRNA inh HTS RFP | T cruzi inh | Beta apoptosis | E coli growth | FGF22 binding | AF4-AF9 inh
COc1ccc(C2=NOC(Cn3nc(-c4ccccc4)cc3C(=O)NCc3ccco3)C2)cc1 (centres undefined) | 0.4 | 0.9 | 0 | 7 | -15 | / | 2 | 0.81 | i | 2.2
COCC1CCN(C(=O)CC2C(=O)NCCN2Cc2cccc(Oc3ccccc3)c2)CC1 (centres undefined) | 0.1 | -4.9 | 3 | 0 | 4.0 | -6 | -5 | 0.7 | i | 2.8
O=C(NNC(=O)c1ccccc1Br)c1ccc(Cl)c(Cl)c1 | 0.2 | 0.6 | / | / | / | 2 | -3 | 0.71 | / | /
Cc1csc(NC(=O)CSc2nc(C)cs2)n1 | 0.6 | 3.8 | / | / | / | -4 | -11 | 0.75 | / | /
O=C(Cc1coc(-c2ccc(F)cc2)n1)N1CCOCC1 | 0.1 | -1.8 | / | / | / | -20 | -2 | 0.76 | / | /
Cc1ccccc1C(=O)OCCN(C)Cc1ccccc1 | 0.0 | 2.0 | 2 | -1 | -1.0 | 27 | 2 | 0.67 | i | -0.7
COc1cccc(C2SCC(=O)N2c2ccc(Br)cc2)c1OC (centres undefined) | -0.6 | 0.7 | / | / | / | -2 | -4 | 0.67 | / | /
Cc1ccc(C(=O)NC2CCCc3ccccc32)cc1[N+](=O)[O-] (centres undefined) | -1.0 | 1.7 | 4 | 3 | -0.6 | 2 | 5 | 0.63 | i | -2.2
NC(=O)Cn1c(=O)n(CC(=O)N2CCCCC2)c(=O)c2sccc21 | -1.2 | 3.5 | 0 | 0 | -1.4 | -14 | 0 | 0.67 | i | 2.4
COc1ccc(NC(=O)CN(C)C(=O)c2ccc(NS(=O)(=O)c3ccc(F)cc3)cc2)cc1 | 0.1 | 6.1 | 6 | 4 | -0.2 | -4 | -6 | 0.65 | i | -2.0
Cc1ccc(SCC(=O)Nc2ccc(N3CCOCC3)cc2)cc1 | -0.3 | 1.1 | 6 | -4 | -1.7 | 14 | 1 | 0.68 | i | 0.2
Cc1ccc(NC(=O)C(C)N2C(=O)C3C4CC(C(Br)C4Br)C3C2=O)cc1 (centres undefined) | -0.3 | 3.5 | / | / | / | 5 | -4 | 0.73 | / | /

The closing 2 records of the part above are carried over, then new ones follow.
SMILES | A1 inh | UCH37 inh | rRNA inh HTS | rRNA inh HTS OD600 | rRNA inh HTS RFP | T cruzi inh | Beta apoptosis | E coli growth | FGF22 binding | AF4-AF9 inh
Cc1ccc(SCC(=O)Nc2ccc(N3CCOCC3)cc2)cc1 | -0.3 | 1.1 | 6 | -4 | -1.7 | 14 | 1 | 0.68 | i | 0.2
Cc1ccc(NC(=O)C(C)N2C(=O)C3C4CC(C(Br)C4Br)C3C2=O)cc1 (centres undefined) | -0.3 | 3.5 | / | / | / | 5 | -4 | 0.73 | / | /
CCOc1cc(/C=C2\SC(=S)N(NC(=O)c3cccnc3)C2=O)ccc1O | 1.1 | 14 | -1 | 3 | 54 | 14 | 6 | 0.65 | i | 2.0
CCC(=O)c1ccc(N2CCN(C(=O)COc3ccccc3F)CC2)c(F)c1 | 0.6 | 4.9 | 10 | 3 | 3.3 | -7 | / | 0.71 | i | -3.6
CC(=O)C1C(c2cccc([N+](=O)[O-])c2)C2C(C)=NN=C2CC1(C)O (centres undefined) | -0.4 | 0.6 | / | / | / | -4 | -4 | 0.71 | / | /
CCCSc1nc(N2CCOCC2)c2c(c1C#N)CCCC2 | 2.0 | 1.5 | / | / | / | 30 | 6 | 0.72 | / | /
Cc1cccnc1NC(=O)CCc1nnc2ccc(N3CCC4(CC3)OCCO4)nn12 | 0.8 | -0.1 | 9 | 8 | 3.2 | -7 | -20 | 0.71 | i | 1.2
CC(N=C1NS(=O)(=O)c2ccccc21)C(=O)NCc1ccncc1 (centres undefined) | / | 1.3 | 2 | 1 | 0.2 | / | / | 0.72 | i | -26
CC(NC(=O)COC(=O)/C=C/c1cccc(F)c1)c1ccccc1 (centres undefined) | -0.8 | 1.4 | 0 | 4 | -2.0 | / | -3 | 0.71 | i | 0.1
O=C1Nc2ccccc2C(O)(C(=O)NCc2ccco2)N1c1ccccc1 (centres undefined) | 1.7 | 0.1 | / | / | / | -5 | -6 | 0.75 | / | /
CS(=O)(=O)N1CCN(c2ccccc2NC(=O)c2cc3ccccc3o2)CC1 | -0.4 | 0.0 | -11 | -20 | 4.2 | 10 | / | 0.68 | i | 0.8
Cc1ccc(-c2nc3ccccc3o2)cc1NC(=O)Cc1cccs1 | -0.4 | 0.3 | / | / | / | -4 | 3 | 0.68 | / | /
CCC(=O)Nc1ccc2c(c1)nc(CCNC(=O)c1ccco1)n2C | -1.3 | -1.8 | 3 | 8 | -0.9 | -7 | 0 | 0.68 | i | -3.8
Cc1cccc(N(C)S(=O)(=O)c2cccc3nsnc23)c1 | -0.7 | 3.7 | / | / | / | 5 | -3 | 0.71 | / | /

Arranged by SMILES length (ascending): part of the list above
SMILES | A1 inh | UCH37 inh | rRNA inh HTS | rRNA inh HTS OD600 | rRNA inh HTS RFP | T cruzi inh | Beta apoptosis | E coli growth | FGF22 binding | AF4-AF9 inh
Cc1cccc(N(C)S(=O)(=O)c2cccc3nsnc23)c1 | -0.7 | 3.7 | / | / | / | 5 | -3 | 0.71 | / | /
CC(NC(=O)COC(=O)/C=C/c1cccc(F)c1)c1ccccc1 (centres undefined) | -0.8 | 1.4 | 0 | 4 | -2.0 | / | -3 | 0.71 | i | 0.1
O=C1Nc2ccccc2C(O)(C(=O)NCc2ccco2)N1c1ccccc1 (centres undefined) | 1.7 | 0.1 | / | / | / | -5 | -6 | 0.75 | / | /

Continued:
SMILES | A1 inh | UCH37 inh | rRNA inh HTS | rRNA inh HTS OD600 | rRNA inh HTS RFP | T cruzi inh | Beta apoptosis | E coli growth | FGF22 binding | AF4-AF9 inh
CC(=O)c1c(C)[nH]c(C(=O)OCc2ccc(Br)cc2)c1C | -1.2 | 4.7 | 6 | 10 | -2.2 | 53 | 19 | 0.71 | i | -1.8
CCCc1cc(=O)oc2cc(OCC(=O)NCCCN3CCOCC3)c(Cl)cc12 | -1.4 | -11 | 2 | 9 | 2.0 | 5 | -5 | 0.67 | i | 3.1
CC(=O)N1c2ccc(S(=O)(=O)NCC3CCC(C(=O)Nc4ncccc4C)CC3)cc2CC1C (centres undefined) | 1.4 | 6.6 | -1 | 2 | -2.6 | -4 | -3 | 0.69 | i | 1.3
Cc1cc2c(c(=O)n1CCCn1ccnc1)C(c1ccco1)C(C#N)=C(N)O2 (centres undefined) | 0.7 | 2.4 | / | / | / | 0 | -4 | 0.71 | / | /
CCCCCN(C(=O)NC(=O)NC(C)CC)S(C)(=O)=O (centres undefined) | 0.1 | 4.2 | / | / | / | -14 | / | 0.7 | / | /
COCCn1c(C)cc(C(=O)COC(=O)CCS(=O)(=O)c2ccc(C)cc2)c1C | 0.5 | -0.9 | 3 | 3 | 1.2 | -5 | -12 | 0.68 | i | 4.9
Cc1cc(C)n(-c2ccc(F)cc2CN2CCN(Cc3ccccc3)C(CCO)C2)n1 (centres undefined) | 0.1 | 2.4 | 6 | 4 | 1.9 | 6 | -3 | 0.71 | / | 0.4
COC(=O)c1cc(S(=O)(=O)NCC2CCN(CCc3cccs3)CC2)cn1C | -0.2 | 2.3 | 12 | 14 | -0.8 | 16 | -6 | 0.63 | i | 0.4
Cc1nn(CCc2n[nH]c(=S)n2-c2cccc(Cl)c2)c(C)c1[N+](=O)[O-] | -1.3 | 3.0 | / | / | / | 2 | 4 | 0.72 | / | /
Cc1ccc2c(c1)C1CN(C)CCC1N2C(=O)c1ccc(Cl)c(S(=O)(=O)N2CCOCC2)c1 (centres undefined) | 0.8 | 3.5 | 6 | -4 | 3.1 | 60* | 2 | 0.7 | i | 0.6
CN(Cc1ccccc1)C(=O)COC(=O)COc1ccc(C#N)cc1 | 1.3 | 3.3 | 2 | 10 | 0.8 | -7 | -10 | 0.74 | i | -0.1
COCCN1CN(S(=O)(=O)c2ccccc2)c2nc3ccccc3nc21 | -0.1 | -4.0 | / | / | / | 2 | -1 | 0.68 | / | /
CC(C)CSc1ncnc2c1oc1nc3c(cc12)COC(C)(C)C3 | -0.4 | -6.9 | / | / | / | -3 | -2 | 0.66 | / | /
CN(CCOc1ccccc1)C(=O)CCc1nc2sc3c(c2c(=O)[nH]1)CCCC3 | 0.1 | -5.1 | 9 | 5 | 3.6 | -2 | -4 | 0.72 | i | 0.9
CCn1c(SCC(N)=O)nc2cc(S(=O)(=O)N3CCOCC3)ccc21 | -0.3 | -1.9 | 5 | 7 | 0.9 | -6 | -3 | 0.68 | i | 3.0
N#C/C(=C/c1ccc(O)c(O)c1)c1nc2ccccc2[nH]1 | -7.6 | / | -27 | -43 | -5.7 | -14 | 5 | / | i | -2.2
Cc1ccc(-n2nnnc2-c2cnn(-c3cccc(F)c3)c2C(F)(F)F)cc1 | 0.3 | -0.2 | / | / | / | -6 | 11 | 0.7 | / | /
Cc1ccc(CNC(=O)CCn2cc(-c3ccc(C)cc3)nc2-c2ccncc2)cc1 | 0.8 | -8.1 | -11&-16 | -13&-22 | -5.6&-0.4 | -40 | 1 | 0.66 | i | 5.6
COc1cccc(NC(=S)Nc2ccc(F)cc2)c1 | 1.4 | 3.0 | 4 | 12 | -2.1 | 5 | -1 | 0.7 | i | -0.6
Cc1nn(Cc2ccc(Cl)cc2)c(C)c1NC(=O)CSc1n[nH]c(C)c1[N+](=O)[O-] | 0.5 | 5.3 | / | / | / | 13 | -1 | 0.69 | / | /
O=C(CN1C(=O)C2(OCCO2)c2ccccc21)c1ccc(Cl)cc1 | -0.6 | 0.6 | / | / | / | 9 | 0 | 0.7 | / | /
CCCCn1c(N)c(N(CCOC)C(=O)c2cc(Cl)nc3ccccc23)c(=O)[nH]c1=O | -0.8 | -4.5 | 13 | 9 | 0.9 | 1 | -5 | 0.68 | i | -1.5
Cc1ccccc1C(=O)Nc1c(-c2cccs2)c(=O)c2ccccc2n1C | 0.6 | 5.2 | 6 | 6 | 15 | 5 | -4 | 0.63 | i | -1.5
O=C(O)c1ccc(N/N=C/c2cc3c(cc2[N+](=O)[O-])OCO3)cc1 | -7.2 | / | -3 | -2 | -2.2 | -14 | 3 | / | i | 4.6
O=C1OCCC1S(=O)(=O)c1ccc2ccccc2c1 (centres undefined) | 0.2 | 3.3 | / | / | / | 0 | -2 | 0.69 | / | /
O=C(NCc1ccccc1F)c1ccc2c(c1)OCCO2 | -1.3 | -1.5 | -3 | -10 | -6.1 | -5 | / | 0.65 | i | -6.4
CCCc1nc2cc(CC(=O)OC)ccc2o1 | -0.1 | 0.5 | / | / | / | 2 | -2 | 0.7 | / | /
